Compound activity as filed in PubChem BioAssay.
ALR H2O2 inh: blocks human ALR sulfhydryl oxidase activity; inhibition, % (test concentration not listed); hit rate 3.8% among 290,000; AID 485317; purified ALR, DTT oxidation, H2O2 HRP-luminol luminescence;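 active means mean and each replicate at 75% or more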;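 further: stock transfer was 7.5 nL into about 7.5 µL; 0% = neutral wells and 100% = wells with inactivated enzyme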
Target sequence (P55789 whole entry, looked up): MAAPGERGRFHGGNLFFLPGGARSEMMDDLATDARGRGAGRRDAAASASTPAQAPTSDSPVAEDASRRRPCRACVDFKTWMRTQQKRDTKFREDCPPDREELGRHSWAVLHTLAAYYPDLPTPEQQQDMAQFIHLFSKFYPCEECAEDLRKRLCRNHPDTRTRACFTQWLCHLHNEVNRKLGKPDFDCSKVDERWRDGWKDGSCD
FGF22 binding: shifts melting point of recombinant human FGF22; AID 651658; Q9HCT0; hit rate 1.5% among 340,000; recombinant FGF22 thermal shift, SYPRO orange fluorescence; percent of sucrose octasulfate shift, DMSO zero; calls only at 9.99 µM;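 active means melting point raised past a set limit in the mean and every replicate; three in four hits are not shown here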
HNF4A DNA FP: change in binding of human HNF4 alpha to DNA | HNF4a-FITC DNA binding, fluorescence polarization, 1 h | activity change, % at 10 µM | P41235 | hit rate 0.3% among 360,000 | AID 1224865; in the data active means activity change above about 30%, passing the limit was not always enough;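 further: controls were the assay level and a saturating level of protein; the project sought stronger binding though the title names inhibitors; some compounds called inactive have numbers as strong as hits; positive values seem to mean higher polarization but the record does not say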
Target sequence (P41235 whole entry, looked up): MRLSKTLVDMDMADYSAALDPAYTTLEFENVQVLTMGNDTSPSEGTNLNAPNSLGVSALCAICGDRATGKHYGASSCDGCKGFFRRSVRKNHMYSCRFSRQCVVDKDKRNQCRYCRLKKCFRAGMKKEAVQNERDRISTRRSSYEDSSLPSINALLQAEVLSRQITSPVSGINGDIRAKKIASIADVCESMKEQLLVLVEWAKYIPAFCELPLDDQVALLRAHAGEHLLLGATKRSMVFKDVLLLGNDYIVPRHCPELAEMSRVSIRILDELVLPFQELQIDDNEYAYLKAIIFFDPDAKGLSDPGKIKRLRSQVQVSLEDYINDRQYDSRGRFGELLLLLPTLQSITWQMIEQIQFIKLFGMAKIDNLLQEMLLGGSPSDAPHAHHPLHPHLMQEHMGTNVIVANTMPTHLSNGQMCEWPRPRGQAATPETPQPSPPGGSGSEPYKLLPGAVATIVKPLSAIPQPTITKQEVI
Ecoli growth: blocks Escherichia coli growth. hit rate 0.21% among 330,000. OD600 absorbance (test concentration not listed). OD600, 23 h; hits give low values. AID 1053175;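 active means OD600 absorbance below the run mean of sample wells minus 3.6 SD, in any replicate, cut at about 0.56 in these data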;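 further: stock transfer was 300 nL into about 60 µL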
Beta2AR agonist: agonists of human beta-2 adrenergic receptor inducing internalization. P07550. Am2.2-beta2AR cells, FAP receptor internalization, flow cytometry; reference of the scale not given here. response, % (test concentration not listed). hit rate 0.43% among 340,000;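 active means response above a set limit, near 3 SD of response in nonfluorescent compounds, cut at about 42% in these data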;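 further: stock transfer was 100 nL into about 11 µL; a reference agonist was the positive control; negative values mostly stem from fluorescent compounds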
rRNA inh HTS: selective bacterial rRNA inhibition in E. coli. E. coli WT GFP vs humanized-ribosome RFP mutants, fluorescence, 24 h; hits give low values; DMSO median 0, no signal -100. hit rate 1.6% among 350,000. GFP signal change (wild-type ribosome), % (concentration not given with the values);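 active means significant combined selectivity score with lowered wild-type GFP, culture density cut under 30%, mutant RFP and density less affected; inactive means any of these conditions unmet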; further: one replicate is shown; some compounds called inactive have numbers as strong as hits
UCH37 inh: blocks the human deubiquitinase UCH37. Q9Y5K5. inhibition, % (no concentration beside the values). purified proteasome/UCH37, Ub-AMC cleavage fluorescence. hit rate 0.33% among 330,000. AID 588478;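 active means mean of two replicates above 20%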;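 further: 0% = compound-free wells with enzyme and 100% = wells lacking proteasome; stock transfer was 100 nL into about 20 µL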
Target sequence (Q9Y5K5 whole entry, looked up): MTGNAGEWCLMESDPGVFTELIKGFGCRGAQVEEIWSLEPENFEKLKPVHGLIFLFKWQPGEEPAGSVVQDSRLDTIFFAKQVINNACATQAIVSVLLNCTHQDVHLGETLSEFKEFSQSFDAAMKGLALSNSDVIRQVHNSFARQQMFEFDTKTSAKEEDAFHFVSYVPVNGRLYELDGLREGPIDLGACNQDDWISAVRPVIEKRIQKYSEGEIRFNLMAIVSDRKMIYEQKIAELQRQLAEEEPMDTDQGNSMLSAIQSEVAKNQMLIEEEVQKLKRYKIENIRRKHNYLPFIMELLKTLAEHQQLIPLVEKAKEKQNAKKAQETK
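assay system = human UCH37 enzyme supplied as purified proteasome complex | amount = proteasome at 0.15 nM in the dispensed enzyme solution | schedule = 30 min compound-proteasome preincubation then 25 min substrate reaction, room temperature | measured by = fluorescence, ex 355 nm, em 460 nm | benchmarks = no-proteasome wells (full inhibition) and compound-free wells (no inhibition)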
rRNA inh HTS OD600: second read-out of rRNA inh HTS, no call of its own (marks repeat the call); OD600 change, %; measured here: OD600 growth;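 optical density of the mix in the first replicate; 0 = DMSO median and -100 = no signal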
rRNA inh HTS RFP: further read-out of rRNA inh HTS, marked with its call; RFP signal change, %; measured here: RFP humanized mutant strains;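 first replicate; 0 = DMSO median and -100 = no signal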
* = called active by the depositor; i = inactive; / = not tested or not shown; + = active, no number; & = joins results of further samples. Only part of the results is shown. The share of hits here may be higher or lower than overall.

SMILES	ALR H2O2 inh	FGF22 binding	HNF4A DNA FP	Ecoli growth	Beta2AR agonist	rRNA inh HTS	rRNA inh HTS OD600	rRNA inh HTS RFP	UCH37 inh
CC(C)Cc1c(O)nc(SCC(=O)N2CCCCCC2)[nH]c1=O	97*	i	-2.0	0.68	-2	8	3	2.4	4.6
O=C(Nc1ccn(CCCN(CCCn2ccc(NC(=O)OCc3ccccc3)nc2=O)CCc2cc3ccccc3[nH]2)c(=O)n1)OCc1ccccc1	/	i	1.6	/	20	-47	-63	-8.8	/
CN(Cc1ccon1)C(=O)C1CCC(=O)N(Cc2ccc(Cl)cc2)C1 (stereo not drawn)	-2	i	0.0	0.7	-5	-2	-7	1.7	0.2
CC(=O)Oc1ccc(C(=O)Nc2ccc(S(=O)(=O)N3CCOCC3)cc2)cc1	-3	i	-2.6	0.61	10	-8	-6	0.3	4.6
CCCn1nnnc1NCc1c(Cl)cccc1Cl	-2	i	1.9	0.67	-3	/	/	/	-2.2
Cc1ccc(S(=O)(=O)N(C)c2ccc(OCC(=O)Nc3ccc(S(C)(=O)=O)cc3)cc2)cc1	/	i	-1.9	0.67	-6	-9	-13	-0.4	0.7
CN(c1ccc(C(=O)N2CCOCC2)cc1)S(=O)(=O)c1ccc(Cl)cc1	2	i	3.6	0.67	-4	2	1	-3.0	-1.3
C=CCN(CC=C)Cc1c(O)ccc2c(=O)c(-c3ccccc3)coc12	-1	i	-2.2	0.69	1	2	-1	-2.2	-332
Cc1cccnc1NC(=O)CCNS(=O)(=O)c1ccc2c(c1)c(=O)n(C)c(=O)n2C	-9	i	-2.9	0.66	0	14	10	4.2	3.7
Cc1noc(C)c1NC(=O)Nc1cccc2c1O[C@@H](CN(C)C)[C@@H](C)CN([C@H](C)CO)C2=O	2	i	-0.7	0.73	2	1&5	1&6	-2.1&-14	-1.4
COc1cc(S(=O)(=O)N2CCOCC2)ccc1NC(=O)CN1c2cccc3cccc(c23)S1(=O)=O	-17	i	2.7	0.7	8	-1	7	14	-23
OCC[C@H]1C[C@H](O)[C@@H](O)[C@]2(Cc3ccccc3O2)O1	/	i	0.5	/	1	5	2	-8.0	2.6
Cc1ccc2c(c1)c(C)c(C)n2CC(O)Cn1nnc2ccccc21 (stereo not drawn)	-12	/	11	0.68	-74	/	/	/	1.8
COc1ccc(C(=O)N(CC(=O)Nc2sc(C)c(C)c2C(N)=O)C2CCCC2)cc1	/	i	-3.1	0.67	-9	1	-14	-0.5	3.2
CC(=O)Nc1cccc(OCCCNC(=O)c2ccc(F)cc2)c1	-13	i	-1.6	0.65	2	0	6	-1.7	4.1
COc1ccc(NN=Nc2ccc([N+](=O)[O-])cc2)cc1	-78	i	-0.1	0.63	-3	12	6	0.1	2.6
C=CCn1c(=S)[nH]c2scc(-c3cccs3)c2c1=O	/	i	3.4	0.66	-4	-51	-78	-15	5.3
CCc1ccc(C(=O)NNC(=O)c2ccc3c(=O)n4c(nc3c2)CCC4)cc1	-2	i	2.0	0.67	-3	1	4	0.4	-7.3
CN1CCc2c(c3c(n2C)CCN(C)C3c2ccc(F)cc2)C1c1ccc(F)cc1 (stereo not drawn)	-3	/	0.6	0.68	7	/	/	/	-0.2
Cc1cc(C(=O)OCC(=O)c2c(N)n(C)c(=O)n(C)c2=O)c(C)n1-c1ccccc1	/	/	2.7	0.78	-6	/	/	/	0.7

Whole records, looked up by structure:
Record of Cc1ccc(S(=O)(=O)N(C)c2ccc(OCC(=O)Nc3ccc(S(C)(=O)=O)cc3)cc2)cc1 = ALR H2O2 inh = /; FGF22 binding = i; HNF4A DNA FP = -1.9; Ecoli growth = 0.67; Beta2AR agonist = -6; rRNA inh HTS = -9; rRNA inh HTS OD600 = -13; rRNA inh HTS RFP = -0.4; UCH37 inh = 0.7
Record of COc1cc(S(=O)(=O)N2CCOCC2)ccc1NC(=O)CN1c2cccc3cccc(c23)S1(=O)=O = ALR H2O2 inh = -17; FGF22 binding = i; HNF4A DNA FP = 2.7; Ecoli growth = 0.7; Beta2AR agonist = 8; rRNA inh HTS = -1; rRNA inh HTS OD600 = 7; rRNA inh HTS RFP = 14; UCH37 inh = -23

(more compounds)
SMILES	ALR H2O2 inh	FGF22 binding	HNF4A DNA FP	Ecoli growth	Beta2AR agonist	rRNA inh HTS	rRNA inh HTS OD600	rRNA inh HTS RFP	UCH37 inh
COc1ccc(NCc2nc3ccccc3n2C)cc1	98*	i	-0.1	0.67	-1	11	24	3.9	1.8
O=C(N/N=C/c1ccc(OC(=O)c2ccco2)cc1)c1ccc[n+]([O-])c1	/	i	-0.4	/	8	7	6	6.2	/
Cc1ccc(CNC(=O)/C=C/c2cccs2)cc1	-1	i	-0.8	0.64	-8	-10	-1	11	1.5
CCNc1nc(Oc2ccc(=O)n(-c3ccccc3)n2)nc(N2CCOCC2)n1	-3	/	-2.5	0.68	4	/	/	/	5.4
CC(=O)Nc1ccc2nc(NC(=O)COc3ccc([N+](=O)[O-])cc3)sc2c1	4	i	1.8	0.73	0	5	8	-0.9	7.8
Cc1cc(C)cc(C(=O)NCC(=O)NCc2ccc(S(N)(=O)=O)cc2)c1	5	i	4.3	0.7	-6	10	14	2.2	5.6
COC(=O)c1c(-c2ccccc2Cl)noc1/C=C/N(C)C	-2	i	1.2	0.7	1	62	-2	-1.1	11
Cc1ccc(CNC(=O)CN2C(=O)NC3(CC(C)CC(C)(C)C3)C2=O)cc1 (stereo not drawn)	/	i	1.8	0.67	-4	9	5	1.9	4.8
Cc1ccc(-n2nc3c(=O)n(CC(=O)NCCCc4ccccc4)nc(C)c3c2C)cc1	-4	i	-2.5	0.71	0	-1	7	1.5	-0.9
O=C(c1cc(Cl)cc(Cl)c1)N1CCOCC1	0	/	-1.8	0.7	-16	/	/	/	6.7
Cc1c(Br)c([N+](=O)[O-])nn1CCCC(=O)NC(C)c1ccccc1 (stereo not drawn)	-6	i	-1.3	0.68	1	-3	-6	-2.9	0.9
Cc1cccc(Nc2ccc(S(=O)(=O)N3CCOCC3)cc2[N+](=O)[O-])c1	0	i	3.0	0.71	-2	-4	-30	1.0	2.2
COc1ccc(-c2nnc3sc(COc4ccc(C)cc4)nn23)cc1	/	/	-4.1	0.7	2	/	/	/	3.2
CCN1C(=NCc2ccccc2)N[C@@H](c2ccccc2)[C@H](C(=O)OC)[C@H]1C	-2	i	4.9	/	6	13	10	0.0	5.7
CC(=O)NC1=NN(C(C)=O)C(C)(c2ccccn2)S1 (stereo not drawn)	-2	i	0.6	0.67	6	9	11	1.1	3.2
CCc1cc2cc3c(cc2nc1SCC(=O)Nc1nnc(C)s1)OCCO3	-2	i	-1.2	0.73	5	24	4	1.9	4.9
CCC(=O)Nc1nc(C)c(Oc2ccccc2)c(=O)[nH]1	0	/	3.7	0.78	4	/	/	/	2.8
COC(=O)c1ccccc1NC(=O)Nc1ccc(C(=O)N2CCCC2)cc1	-6	/	1.4	0.69	-9	/	/	/	5.2
COCCCN1C(=O)C(CC(=O)NCC2CCCCC2)CC(C(=O)N2CCOCC2)=C1C (stereo not drawn)	/	i	-4.2	/	/	15	7	1.3	/
COc1ccc(CCNc2cc(=O)[nH]c(N)n2)cc1	17	i	1.9	0.73	7	5	8	-4.8	-0.2

Some of these compounds in order of SMILES length, ascending.
SMILES	ALR H2O2 inh	FGF22 binding	HNF4A DNA FP	Ecoli growth	Beta2AR agonist	rRNA inh HTS	rRNA inh HTS OD600	rRNA inh HTS RFP	UCH37 inh
CC(=O)Nc1cccc(OCCCNC(=O)c2ccc(F)cc2)c1	-13	i	-1.6	0.65	2	0	6	-1.7	4.1
OCC[C@H]1C[C@H](O)[C@@H](O)[C@]2(Cc3ccccc3O2)O1	/	i	0.5	/	1	5	2	-8.0	2.6
Cc1cccnc1NC(=O)CCNS(=O)(=O)c1ccc2c(c1)c(=O)n(C)c(=O)n2C	-9	i	-2.9	0.66	0	14	10	4.2	3.7

Going on with the list:
SMILES	ALR H2O2 inh	FGF22 binding	HNF4A DNA FP	Ecoli growth	Beta2AR agonist	rRNA inh HTS	rRNA inh HTS OD600	rRNA inh HTS RFP	UCH37 inh
Cn1c(=O)c2c(-c3ccccc3)n(Cc3cccnc3)cc2n(C)c1=O	-13	/	-2.0	0.69	1	/	/	/	-0.6
COC(=O)c1cccc(S(=O)(=O)N2CCCC2)c1	1	/	2.7	0.65	3	/	/	/	-0.8
O=C1C2C3C=CC(C3)C2C(=O)N1c1ccc2ccccc2n1 (stereo not drawn)	2	/	-1.4	0.69	1	/	/	/	32*
CCC(c1nnnn1Cc1ccc(F)cc1)N(CCCO)Cc1cc2cc3c(cc2[nH]c1=O)OCO3 (stereo not drawn)	/	/	-15	0.76	-10	/	/	/	-26
O=C(NNc1ccccc1)c1ccccc1	/	i	-2.1	0.68	-1	4	9	0.2	1.1
COc1ccc(C2CC(=O)C(CS(=O)(=O)c3ccccc3)C(=O)C2)cc1 (stereo not drawn)	48	i	-0.3	0.65	15	-16	-21	13	-0.3
O=C(O)Cn1nnnc1SCC(=O)Nc1ccccc1F	-3	i	-0.4	0.73	-4	21	13	0.0	6.3
O=C(NC1CC1(c1ccccc1)c1ccccc1)c1ccccc1 (stereo not drawn)	/	i	3.4	/	-4	-6	14	3.3	/
Cc1cc(Br)ccc1SCC(=O)OC/C(O)=C(\C#N)c1nc2ccccc2[nH]1	10	/	28	/	14	15	11	7.7	/
COc1cccc(-c2cc(C(=O)NC3CCCC3)c3ccccc3n2)c1	-4	i	4.8	0.64	3	2	6	4.4	-7.3
Cn1cc(C2OC(=O)c3ccccc32)c2ccccc21 (stereo not drawn)	/	/	2.4	0.65	0	-10*	-19*	-4.8*	3.5
COc1cccc(CN2CCNC(=O)C2CC(=O)NCCOc2cccnc2)c1 (stereo not drawn)	-2	i	0.6	0.66	-4	15	8	-0.9	-1.9
Cc1cccc(NC(=S)NNC(=O)c2ccc(O)cc2O)c1C	99*	+	1.4	0.71	-2	5	1	-1.7	1.6
CCCC1=[N+](CC(=O)c2ccccc2)CCn2cccc21	1	/	-2.9	0.74	8	/	/	/	-2.0
CCOC(=O)c1cccc(NC(=O)CSc2nnc(COc3ccccc3C)o2)c1	-25	i	-4.0	0.73	8	6	9	-4.4	2.1
Cc1cc(=O)[nH]c(SCC(=O)N2CCN(S(=O)(=O)c3ccccc3)C2)n1	1	i	1.1	0.67	-4	-2	11	0.2	0.5
CCN(CC)CCNC(=O)CN1C(=O)COc2ccc(S(=O)(=O)N3CCOCC3)cc21	-2	i	0.0	0.7	5	5	5	-3.6	4.8
CCN(CC)C(=O)[C@H]1C[C@H](CC(=O)NCCN2CCOCC2)C(=O)N2CCc3c([nH]c4ccc(Cl)cc34)[C@]12C	/	i	-6.0	0.68	-1	0	-2	6.7	3.5
Cc1cccc(CNC(=O)C2CCC(=O)N(C3CCCC3)C2)c1 (stereo not drawn)	-5	i	4.6	0.67	-6	0	6	-1.1	-2.6
COc1ccc(C(c2nnnn2CC2CCCO2)N2CCN(c3ccccc3)CC2)cc1 (stereo not drawn)	11	/	-2.6	0.77	-6	/	/	/	1.7
C=CCn1c(=S)[nH]c2cc(C(=O)N3CCN(c4ccccc4OC)CC3)ccc2c1=O	40	i	-8.3	0.72	4	13	6	6.3	5.4
COc1ccc(OCc2cc(C(=O)NCCN3CCCc4ccccc43)no2)c(Cl)c1	3	i	16	0.76	5	-22	-19	-4.5	1.9
COc1ccc(CN2CCNC(=O)C2CC(=O)NC2CCCC2)c(OC)c1 (stereo not drawn)	0	i	7.2	0.74	0	13	13	2.8	0.5
O=C(CC1Sc2ccccc2NC1=O)NNc1cccc(Cl)c1Cl (stereo not drawn)	/	i	-1.8	0.71	-1	-8	-2	9.9	3.6
Cc1ccc(S(=O)(=O)N2CCC(C(=O)N[C@H](C(=O)NCC3CCCO3)C(C)C)CC2)cc1 (stereo partly drawn)	0	/	0.9	0.72	-2	/	/	/	3.6
